# CapD inh: inhibitors of Bacillus anthracis CapD enzyme | z-score (no concentration beside the values) | purified CapD enzyme, fluorescence intensity read-out; active compounds read low; some hits fall short of the stated cut | hit rate 0.23% among 140,000;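 active = z-score under -4 in either of two replicates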;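 also: stock transfer was 100 nL into about 40 µL; score is relative to mean and spread of the plate; one replicate is shown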
# AID504770: E. coli YBA685 growth inhibition, screen for V. cholerae RctB inhibitors; E. coli YBA685 rctB-dependent plasmid, OD600 growth, 3 h; active compounds read low; z-score (no concentration beside the values); hit rate 0.27% among 130,000; AID 504770;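 active = z-score under -2 on both plates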;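 also: wells of about 30 µL received 100 nL stock; score is relative to mean and SD of the test wells; the first replicate is given; strong numbers were not always called active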
# Numbers without * were called inactive; x = not tested or not shown.
# Every second line gives: CapD inh	AID504770
CC1CN(c2ccccc2)NC1=O (stereo unspecified)
  -1.24	-0.65
CC1(C)CC2CC(C)(CN2C(=O)CSc2nn3c(=O)c(C(C)(C)C)nnc3s2)C1 (stereo unspecified)
  x	0.3
CC1(C)C2CC[C@@](C)(C2)C1NS(=O)(=O)c1ccc(-c2cc(C(F)(F)F)on2)s1 (stereo partly specified)
  9.02	-1.2
Cc1onc(-c2ccccc2Cl)c1C1=NCCO1
  0.895	-0.35
CCOC(=O)c1ccc(Nc2nc3nonc3n3cnnc23)cc1
  -0.2	x
COc1cc2c(cc1OC)C(=O)N(Cc1c(Cl)cccc1Cl)CC2
  -0.505	-1.35
CCOC(=O)C(NC(=O)c1ccccc1Cl)(Nc1sc2c(c1C#N)CCCC2)C(F)(F)F (stereo unspecified)
  -0.09	x
COc1cc2cc(C(=O)O)cc(-c3ccc(C)cc3)c2cc1OC
  -0.47	1.95
CN1CCC(N(C)C(=O)COc2ccccc2Cl)CC1
  x	-1.15
Nc1ncnc2c1ncn2CCNCc1ccccc1
  0.985	-0.1
Cc1ccc(-n2c(SCC3NS(=O)(=O)N=C4CCCCCN43)nnc2-c2ccccc2)cc1C (stereo unspecified)
  x	0.65
CSC1=NC(=Nc2ccccc2)C2(CCCCC2)N1c1ccc(Cl)cc1
  -0.16	x
COCc1cc(C)nc2sc(C(=O)Nc3ccc(S(N)(=O)=O)cc3)c(N)c12
  -0.805	-0.3
c1c2c(cc3sc(N4CCCCC4)nc13)OCCO2
  x	-1.25
COc1cc(OC)c(CN2CCN(C(=O)OCc3ccccc3CCc3ccccc3)CC2)c(OC)c1
  0.23	x

# Among those listed so far, 2 contain a CF3 group:
# Every second line gives: CapD inh	AID504770
CC1(C)C2CC[C@@](C)(C2)C1NS(=O)(=O)c1ccc(-c2cc(C(F)(F)F)on2)s1 (stereo partly specified)
  9.02	-1.2
CCOC(=O)C(NC(=O)c1ccccc1Cl)(Nc1sc2c(c1C#N)CCCC2)C(F)(F)F (stereo unspecified)
  -0.09	x

# (next part)
# Every second line gives: CapD inh	AID504770
O=S(=O)(NC1CCCC1)c1cccc2nsnc12
  -0.685	x
COc1ccc(S(=O)(=O)N2CCN(C)CC2)c(C)c1C
  0.68	0.05
COc1ccc(C=C2C(=O)N(C)C(=S)N(C)C2=O)c(C)c1
  0.33	-0.75
CC(C)Cn1c(CC(C)(C)C)nc2ccccc21
  0.35	-0.3
O=C1CN(Cc2ccccc2)CC(=O)N1CCc1ccccc1
  0.605	-0.35
O=C(CNC1CCCCC1)N1CCC2(CC1)OCCO2
  x	2.05
COC(=O)c1cc(C#N)c(NCc2cc(-c3ccc(Cl)cc3)no2)nc1C
  -0.08	x
CCOC(=O)N1CCc2c(sc3c2c(=O)n(Cc2ccccc2)c(=O)n3CC(=O)NC(C)CC)C1 (stereo unspecified)
  0.47	-0.75
CCCCN(CC)C(=O)c1ccc(Cl)c(Cl)c1
  -0.12	-0.6
CCN=c1scc(C)n1/N=C/c1ccc2c(c1)OCCO2
  x	-0.5
C=CCNC(=S)N(Cc1ccccc1O)CC1CCCO1 (stereo unspecified)
  x	0.15
O=C(NCc1csc2ccc(Cl)cc12)c1ccc(C(F)(F)F)cc1
  0.38	0.55
CC1CCC(NC(=O)Cn2nc(Cc3ccncc3)c3ccccc3c2=O)CC1 (stereo unspecified)
  0.28	0.55
CCc1nc2ccccc2c(C(=O)OCC(=O)NCc2ccccc2)c1C
  0.36	0.95
CC1CC(NC(=O)c2ccccc2N)CC(C)(C)C1 (stereo unspecified)
  45.1	x
Cc1ccc(C(=O)NC2CCSC2=O)cc1 (stereo unspecified)
  x	-0.1
Cc1ccc(CC/C=N/NC(N)=S)o1
  x	-0.9
CCc1ccccc1NC(=O)C(CC)n1c2ccccc2c2nc(=O)cc(C)n21 (stereo unspecified)
  0.35	-1.1
O=C(O)Cc1ccsc1
  x	0.4
CCN1CCc2c(sc(N)c2C(=O)OC)C1
  56.6	-0.3
Cc1c(O)c(C(=O)c2nn[nH]n2)c(=O)n(-c2ccccc2)c1-c1ccccc1
  -0.35	1.05
CC(=O)Nc1ccc(C(=O)OCC(=O)c2ccc3c(c2)OCCO3)cc1
  x	-0.05
COc1ccc(-c2noc(N3CCc4ccccc4C3)n2)cc1
  0.305	-0.05
Cc1ccc(-n2ncc3c2ncn2nc(Cc4ccccc4)nc32)cc1
  -2.42	0
CN(C)/C=C(/C(=O)c1ccc(Cl)cc1)S(=O)(=O)c1ccc(Cl)cc1
  0.42	x
O=C1CSC(=O)N1CC(O)Cn1c2ccccc2c2ccccc21 (stereo unspecified)
  x	1.6
Cc1ccc(C)c(CN2C(=O)c3ccccc3S(=O)(=O)c3ccc(C(=O)NCCN(C)C)cc32)c1
  3.23	-0.5
COC(=O)c1ccc(C2Oc3c(OC)cccc3C3CC(c4cccnc4)=NN32)cc1 (stereo unspecified)
  0.24	x
Cc1ccc2c(c1)NC(c1ccc(C(=O)O)cc1)c1cccn1-2 (stereo unspecified)
  2.04	-0.1
CCn1c(SCC(=O)OCC(=O)N=c2sccn2Cc2ccc(C)cc2)nnc1-c1ccco1
  x	0.3
S=c1cc(-c2ccccc2)sc2ccccc12
  -1.68	0.25
O=C(O)c1ccc(-c2cn3cccnc3n2)cc1
  105	-0.2
CCC1(CC)NC(=O)N(Cc2nnc(-c3ccccc3Br)o2)C1=O
  x	0.35
COc1ccc(-c2[nH]ncc2Oc2ccccc2)c(O)c1
  x	-0.7
O=S(=O)(/C=C/c1ccccc1)NNc1ccccc1
  x	-1.2
Cc1ccc2c(C)c(-c3ccccc3)c(=O)oc2c1
  12.4	-0.1
CC(Sc1nnc(-c2cc3ccccc3o2)n1-c1ccccc1)C(=O)O (stereo unspecified)
  3.75	-0.4
O=C(c1cc(S(=O)(=O)N2CCCCC2)c(Cl)cc1Cl)N1CCCCC1
  0.27	1.1
CC(C)C(=O)N(c1ccc(Cl)cc1)C1C=CS(=O)(=O)C1 (stereo unspecified)
  x	1
CCCCCCCCCCOc1ccc(-c2ncc(CCCCCCCC)cn2)cc1
  -0.3	x
Cc1oc(C)c(C(=O)Nc2ccc(CC(=O)O)cc2)c1C(=O)Nc1ccc(CC(=O)O)cc1
  0.58	-0.5
O=c1oc2cc(Oc3ncccn3)ccc2c2c1CCCCC2
  x	1.9
O=C(NN1C(=O)c2ccccc2C1=O)c1cccc(Cl)c1
  0.21	-0.55
CC1CCc2c(sc3nc(CSc4n[nH]c(N)n4)[nH]c(=O)c23)C1 (stereo unspecified)
  x	-0.45
CCOc1ccc(C2=NN3C(C2)c2cccc(OC)c2OC3c2ccc(OCC)cc2)cc1 (stereo unspecified)
  0.815	x

# Shown as labelled records: four of the compounds above.
COc1ccc(-c2[nH]ncc2Oc2ccccc2)c(O)c1
  CapD inh: x
  AID504770: -0.7

O=S(=O)(/C=C/c1ccccc1)NNc1ccccc1
  CapD inh: x
  AID504770: -1.2

Cc1ccc2c(C)c(-c3ccccc3)c(=O)oc2c1
  CapD inh: 12.4
  AID504770: -0.1

CC(Sc1nnc(-c2cc3ccccc3o2)n1-c1ccccc1)C(=O)O (stereo unspecified)
  CapD inh: 3.75
  AID504770: -0.4

# Later entries.
# Every second line gives: CapD inh	AID504770
Cc1nc(N2CCOCC2)c2c(C)c(C(=O)Nc3ccc([N+](=O)[O-])cc3C)sc2n1
  -0.535	x
O=C1c2ccccc2C(=O)N1CN(CCSc1ccccc1)CN1C(=O)c2ccccc2C1=O
  -0.285	x
O=C(Nc1ccc(Cl)cc1)c1cn(-c2ccccc2)nc1-c1cccnc1
  -0.4	-1.1
COc1ccc(-c2cc(C(F)(F)F)n3nc(C(=O)NCc4cccnc4)c(Cl)c3n2)cc1OC
  0.24	x
O=C(Cn1nc(-c2ccccc2)ccc1=O)NCCCN1CCc2ccccc2C1
  -0.205	-0.35
Cc1ccc(CSCC(=O)NCc2ccc3c(c2)OCO3)cc1
  -0.235	0.6
COC(=O)N1CC(=O)N(OC)C1c1ccc(Cl)cc1Cl (stereo unspecified)
  0.03	x
Cc1cc(OCC(=O)NC(Cc2c[nH]c3ccccc23)C(=O)O)cc(C)c1Cl (stereo unspecified)
  0.265	1.05
Cc1nc2ccccc2c(=O)n1CCO
  0.385	-0.05
Cc1cccc(C(=O)Nc2cccnc2)c1
  x	-0.7
O=S(=O)(NCc1cccc2ccccc12)c1ccc(Br)cc1OC(F)(F)F
  -0.105	x
O=C(COc1ncnc2ccccc12)Nc1ccc(Cl)cc1
  x	-0.4
COc1ccc(NC(=S)Nc2ccccc2Cl)cc1OC
  -0.09	x
N=C1c2ccccc2CN1c1ccc(O)c(C(=O)O)c1
  -0.1	1.6
CCN(C(=O)c1cc(N(C)C)nc(N(C)C)n1)c1ccccc1
  -0.645	x
O=C(O)CCN1N=C(c2ccccc2)/C(=C\c2cn(-c3ccccc3)nc2-c2cc3ccccc3o2)C1=O
  x	1.1
C1CNC2NCCNC2N1 (stereo unspecified)
  x	-0.6
COC(=O)c1cccc(OCC(O)Cn2ccnc2)c1 (stereo unspecified)
  -0.65	-0.8
N#CC1=C(N)Oc2c(c(=O)oc3ccccc23)C1c1ccc(OCc2ccccc2)cc1 (stereo unspecified)
  1.42	x
COCCNC(=S)c1ccc(OC)cc1
  -0.03	0.05
CCOC(=O)C1CCN(CN2C(=O)C3(OCC(C)(c4ccccc4)CO3)c3ccccc32)CC1 (stereo unspecified)
  -0.55	x
O=C(O)/C(S)=C\C=C\c1ccccc1
  x	0.15
CCC(=O)c1c[nH]c(C(=O)NC)c1
  -0.615	-0.3
Cc1cc(C)c(CS/C(N)=N/N)c(C)c1
  0.24	x
CN1C(=O)/C(=C/c2cn(CC(=O)N3CCCC3)c3ccccc23)C(=O)NC1=S
  -0.425	-0.35
COCc1cc2cccc3c2n(c1=O)CCC3
  11	x
NC(=O)c1ccc(-c2ccc(C(N)=O)cc2)cc1
  -0.67	-0.5
CC(C)C(=O)Nc1sc2c(c1C(=O)O)CCCC2
  0.085	0.55
O=C1Nc2ccccc2/C1=C\c1ccc(N2CCOCC2)cc1
  x	1.7
COc1ccccc1NC1=NC(C)(C)N=C(N)N1
  x	0.35
Cc1cc(C)nc(OC(Cc2ccncn2)c2ccc(C(C)(C)C)cc2)n1 (stereo unspecified)
  -0.195	x
COc1cccc(NC(=O)C2CCN(S(=O)(=O)c3cc(Br)cc4c3N(C(C)=O)CC4)CC2)c1
  0.05	-0.45
N#Cc1ccc(CN2CCCC2)cc1
  x	0.1
CCc1ccc(OCc2nnc(SCC(=O)NC)n2CC(C)C)cc1
  x	-0.5
CCn1nnc2cc(C(=O)Nc3ccc4c(c3)CCC4)ccc21
  x	-0.85
O=C(Sc1ccccc1)c1csc(-c2cccnc2)n1
  -0.505	-0.5
CC(C)Oc1ccc(CCN=C(N)N=C(N)N)cc1Cl
  x	-0.85
CC1CCCC(C)N1C(=O)COC(=O)c1ccc[nH]c1=O (stereo unspecified)
  x	1.05
O=C1NCCN/C1=C/C(=O)c1ccc(Br)cc1
  -0.33	-1
COc1ccc(-c2csc(Nc3ncccn3)n2)cc1
  0.2	0.9
CCCCCCC(=O)Nc1cccc(C(=O)N/N=C/c2ccccc2OCc2ccccc2)c1
  -0.56	x
COCCN(CCOC)S(=O)(=O)c1ccc(C(=O)Nc2nnc(-c3ccccc3Cl)s2)cc1
  0.525	x
O=C(Nc1nc2ccc(S(=O)(=O)N3CCCC3)cc2s1)c1ccncc1
  -0.625	-0.95
CCOC(=O)c1sc(N2CCCC2)c2c1CC(C)(C)CC2=O
  -0.485	-0.95
O=C(c1cc2cccnc2n1S(=O)(=O)c1ccccc1)N1CCOCC1
  0.24	x
CCCN(CCC)c1nc(NC2CCN(C(=O)OCC)CC2)nc(OC)n1
  0.395	-0.9
CCOC(=O)c1cc(C#N)c(C)nc1N1CCN(C(=O)OCCN2CCN(Cc3ccc(C)s3)CC2)CC1
  3	x
COc1ccc(CCNC(=O)/C(C#N)=C/c2ccc[nH]2)cc1OC
  -0.97	1.2
CCc1cc(=O)[nH]c(SCc2c(F)cccc2Cl)n1
  -0.065	x
COc1nc(NCCC2=CCCCC2)nc(N2CC3CC(C2)c2cccc(=O)n2C3)n1 (stereo unspecified)
  3.24	-0.05
O=C(CCCSc1ccccc1)Nc1cccc(CO)c1
  x	-0.15
COc1ccc(CCNC(=O)Cn2sc3nc(C)cc(C)c3c2=O)cc1OC
  -0.065	0.85
O=C1N=c2ccccc2=C1c1c(O)[nH]c2ccc(Cl)cc12
  -0.2	1.7
Cc1cc(C(=O)CSc2n[nH]c(-c3cccs3)n2)c(C)n1Cc1ccco1
  x	0.8
COc1cc2c(cc1OC)C(c1ccccc1NC(=O)c1ccc(F)cc1)=NCC2
  0.38	x
CCCS(=O)(=O)NCc1ccc(C(=O)O)cc1
  x	0.1
Cc1ccc(C2CC(=O)N3CN(CCc4ccccc4)CSC3=C2C#N)cc1 (stereo unspecified)
  -0.735	0.05
COc1nc(N)c(S(=O)(=O)c2cccc(C(F)(F)F)c2)cc1C#N
  19	x
O=C(CCS(=O)(=O)c1ccccc1)NCc1ccc2c(c1)OCO2
  1	0.85
O=C(COC(=O)C1(c2ccccc2F)CCCC1)c1cccs1
  -0.405	-1
O=C(NC1CCCC1OCc1ccccc1)c1ccsc1 (stereo unspecified)
  -0.62	x
Cc1ccc(N2C(=O)c3ccccc3C2C(=O)c2ccc(C)cc2O)cc1 (stereo unspecified)
  -0.015	1.3
CCS(=O)(=O)N1CCN(S(=O)(=O)c2ccc(C(C)C)cc2)CC1
  -0.715	-0.5

# Not a hit list; about 0.39% have a hit in one of these screens.
